AF4-AF9 inh: inhibitors of AF4 peptide binding to AF9, primary screen, biochemical, AlphaScreen, biotin-AF4 peptide, FLAG-AF9, single point; inhibition, % at 10 µM; Protein AF-9 (Homo sapiens), P42568; AID 651704, 2012; 350,000 tested, 0.47% active;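 active = every replicate reaching a set inhibition limit, whatever the replicate mean, cut at about 25% in these data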;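 also: 0% = plate neutral control median and 100% = total signal loss; the record names both 10 and 1 µM as test concentration; the first replicate is given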
Target sequence (P42568 whole entry, looked up): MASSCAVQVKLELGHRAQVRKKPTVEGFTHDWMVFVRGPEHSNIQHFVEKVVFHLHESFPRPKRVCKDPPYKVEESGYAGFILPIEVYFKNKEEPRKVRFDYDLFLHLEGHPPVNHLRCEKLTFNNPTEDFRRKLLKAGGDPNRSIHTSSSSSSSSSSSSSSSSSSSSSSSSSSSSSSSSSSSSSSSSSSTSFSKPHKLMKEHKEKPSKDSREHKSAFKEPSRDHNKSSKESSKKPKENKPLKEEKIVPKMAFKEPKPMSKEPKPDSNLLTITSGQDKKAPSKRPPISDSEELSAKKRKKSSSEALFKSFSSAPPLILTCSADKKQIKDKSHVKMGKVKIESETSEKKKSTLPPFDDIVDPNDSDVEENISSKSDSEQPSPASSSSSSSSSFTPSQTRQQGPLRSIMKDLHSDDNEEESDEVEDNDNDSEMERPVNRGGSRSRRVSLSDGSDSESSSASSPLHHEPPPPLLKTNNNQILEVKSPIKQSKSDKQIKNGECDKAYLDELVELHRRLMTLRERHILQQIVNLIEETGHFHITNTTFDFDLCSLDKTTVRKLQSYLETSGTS
FGF22 binding: binders of human FGF22 protein, primary screen, FGF22 synaptogenesis inhibitor project, biophysical, thermal shift, single point; AID 651658, 2012; 340,000 tested, 1.5% active; Fibroblast growth factor 22 (Homo sapiens), Q9HCT0; calls only at 9.99 µM; recombinant FGF22 thermal shift, SYPRO orange fluorescence; percent of sucrose octasulfate shift, DMSO zero;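 active = melting point raised past a set limit in the mean and every replicate; three in four hits are not shown here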
Target sequence (Q9HCT0 whole entry, looked up): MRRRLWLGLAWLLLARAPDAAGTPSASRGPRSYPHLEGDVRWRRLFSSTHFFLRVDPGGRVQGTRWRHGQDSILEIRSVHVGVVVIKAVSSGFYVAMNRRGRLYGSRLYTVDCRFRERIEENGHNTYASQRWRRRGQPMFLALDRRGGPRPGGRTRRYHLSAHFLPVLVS
rRNA inh HTS: reduced GFP signal of wild-type E. coli, primary screen, bacterial rRNA inhibitor project, GFP/RFP fluorescence, OD600, single point | GFP signal change (wild-type ribosome), % (test concentration not listed) | 350,000 tested, 1.6% active | E. coli WT GFP vs humanized-ribosome RFP mutants, 24 h; stronger effect = lower value; DMSO median 0, no signal -100;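 active = significant combined selectivity score with lowered wild-type GFP, culture density cut under 30%, mutant RFP and density less affected; inactive = any of these conditions unmet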; also: one replicate is shown; some compounds called inactive have numbers as strong as hits
rRNA inh HTS OD600: also measured in rRNA inh HTS; calls as there; OD600 change, %; measured here: OD600 growth;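 optical density of the mix in the first replicate; 0 = DMSO median and -100 = no signal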
rRNA inh HTS RFP: recorded beside rRNA inh HTS, whose call it bears; RFP signal change, %; measured here: RFP humanized mutant strains;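 first replicate; 0 = DMSO median and -100 = no signal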
Active calls of the source: *; & = joins results of further samples. This is a subset (hit frequency here may not be typical).

OCC1OC(C(N=Nc2ccccc2)=NNc2ccccc2)C(O)C1O (stereo not given) was read as AF4-AF9 inh -4.2, FGF22 binding inactive, rRNA inh HTS 0, rRNA inh HTS OD600 4 and rRNA inh HTS RFP -1.2.
`O=C(C[C@@H]1CC[C@@H]2[C@H](COC[C@@H](O)CN2CC2CCOCC2)O1)NCc1ccc(Cl)cc1` gave AF4-AF9 inh -1.8, FGF22 binding inactive, rRNA inh HTS 3, rRNA inh HTS OD600 10 and rRNA inh HTS RFP -0.5.
`COc1ccc(NC(=O)N(C)C[C@H]2Oc3ccc(NC(=O)NC(C)C)cc3C(=O)N([C@@H](C)CO)C[C@@H]2C)cc1` gave AF4-AF9 inh -1.4, FGF22 binding inactive, rRNA inh HTS 4, rRNA inh HTS OD600 0 and rRNA inh HTS RFP -1.9.
C[C@H]1CN([C@@H](C)CO)C(=O)c2cc(NC(=O)CCCCCC(=O)Nc3ccccc3N)ccc2O[C@@H]1CN(C)S(=O)(=O)c1ccc(Cl)cc1 was read as AF4-AF9 inh -1.9, FGF22 binding inactive, rRNA inh HTS -5, rRNA inh HTS OD600 1 and rRNA inh HTS RFP 0.0.
CCN1[C@H](C(=O)N2CCCCC2)[C@@H](CO)[C@@H]2Cn3c(ccc(-c4cccc(F)c4)c3=O)[C@@H]21 was read as AF4-AF9 inh -0.9, FGF22 binding inactive, rRNA inh HTS -1, rRNA inh HTS OD600 4 and rRNA inh HTS RFP -0.6.
`O=[N+]([O-])c1nccn1CCCCCCCCCCCN1CCOCC1` gave AF4-AF9 inh 0.1, FGF22 binding inactive, rRNA inh HTS 3, rRNA inh HTS OD600 17 and rRNA inh HTS RFP 4.8.
For CC1(C(=O)Nc2ccc3c(c2)OCCO3)CN(S(C)(=O)=O)CC(=O)N1Cc1cccs1 (stereo not given) the results were AF4-AF9 inh 0.9, FGF22 binding inactive, rRNA inh HTS 17, rRNA inh HTS OD600 8 and rRNA inh HTS RFP 2.6.
`OC(c1ccccc1)c1nc(-c2cccc(F)c2)cs1` (stereo not given) gave AF4-AF9 inh -6.3, FGF22 binding inactive, rRNA inh HTS -56, rRNA inh HTS OD600 -74 and rRNA inh HTS RFP -17.
`CN1CCN(C(=O)C[C@H]2CC[C@H](NC(=O)c3ccc4c(c3)OCO4)[C@@H](CO)O2)CC1` gave AF4-AF9 inh 0.1, FGF22 binding inactive, rRNA inh HTS 2, rRNA inh HTS OD600 2 and rRNA inh HTS RFP -1.7.
COCCN(CC(=O)Nc1cccc(C)c1C)C(=O)Cn1cnc2ccccc2c1=O was read as AF4-AF9 inh -2.5, FGF22 binding inactive, rRNA inh HTS 3, rRNA inh HTS OD600 8 and rRNA inh HTS RFP 0.2.
Screening Cn1c(=O)c2cc(NC(=O)Nc3ccccc3)ccc2n1Cc1ccccc1 returned AF4-AF9 inh 2.7, FGF22 binding inactive, rRNA inh HTS -3, rRNA inh HTS OD600 -15 and rRNA inh HTS RFP 0.8.
O=C(N[C@@H]1CC[C@H](CCn2cc(-c3ccccc3)nn2)O[C@@H]1CO)c1ccccc1F was read as AF4-AF9 inh 0.4, FGF22 binding inactive, rRNA inh HTS -2, rRNA inh HTS OD600 -1 and rRNA inh HTS RFP 0.4.
CC1=C(C(=O)N(C)C)CC(CC(=O)NCCCN(C)C)C(=O)N1CCCN1CCCC1=O (stereo not given) was read as AF4-AF9 inh -1.9, FGF22 binding inactive, rRNA inh HTS 17, rRNA inh HTS OD600 17 and rRNA inh HTS RFP 1.7.
For CCCNC(=O)C1(C)CCN(C(=O)c2c(Cl)cccc2Cl)C1 (stereo not given) the results were AF4-AF9 inh -2.7, FGF22 binding inactive, rRNA inh HTS 13, rRNA inh HTS OD600 19 and rRNA inh HTS RFP -0.8.
For COc1ccc(NC(=O)N(C)C[C@@H]2Oc3ccc(NS(=O)(=O)c4cccs4)cc3C(=O)N([C@H](C)CO)C[C@H]2C)cc1 the results were AF4-AF9 inh -2.4, FGF22 binding inactive, rRNA inh HTS 1, rRNA inh HTS OD600 -2 and rRNA inh HTS RFP -3.0.

The last two records of the part before open the next one:
For CCCNC(=O)C1(C)CCN(C(=O)c2c(Cl)cccc2Cl)C1 (stereo not given) the results were AF4-AF9 inh -2.7, FGF22 binding inactive, rRNA inh HTS 13, rRNA inh HTS OD600 19 and rRNA inh HTS RFP -0.8.
For COc1ccc(NC(=O)N(C)C[C@@H]2Oc3ccc(NS(=O)(=O)c4cccs4)cc3C(=O)N([C@H](C)CO)C[C@H]2C)cc1 the results were AF4-AF9 inh -2.4, FGF22 binding inactive, rRNA inh HTS 1, rRNA inh HTS OD600 -2 and rRNA inh HTS RFP -3.0.
For CCCNC(=O)N1CC2(CCN(C(=O)c3ccncc3)CC2)c2c([nH]c3cc(OC)ccc23)[C@@H]1CO the results were AF4-AF9 inh -0.6, FGF22 binding inactive, rRNA inh HTS -1, rRNA inh HTS OD600 4 and rRNA inh HTS RFP -3.5.
COc1ccc(CN(C)C[C@@H]2Oc3ccc(NC(=O)C4CC4)cc3CC(=O)N([C@H](C)CO)C[C@H]2C)cc1 was read as AF4-AF9 inh -6.5, FGF22 binding inactive, rRNA inh HTS 0, rRNA inh HTS OD600 3 and rRNA inh HTS RFP 0.3.
Screening COc1cc2c(cc1OC)C(C(N)=O)NCC2 (stereo not given) returned AF4-AF9 inh -0.1, FGF22 binding inactive, rRNA inh HTS 10, rRNA inh HTS OD600 21 and rRNA inh HTS RFP 0.8.
COCC(=O)N1CCCCN2[C@@H](CO)[C@@H](c3ccc(C#Cc4ccc(OC)cc4)cc3)[C@@H]2C1 was read as AF4-AF9 inh 0.3, FGF22 binding inactive, rRNA inh HTS 5, rRNA inh HTS OD600 -9 and rRNA inh HTS RFP -3.4.
Screening C[C@H](CO)N1C[C@H](C)[C@H](CN(C)CC2CC2)Oc2ccc(NS(=O)(=O)c3ccccc3)cc2CC1=O returned AF4-AF9 inh -1.1, FGF22 binding inactive, rRNA inh HTS 8, rRNA inh HTS OD600 10 and rRNA inh HTS RFP 0.7.
For CCCNC(=O)N(C)C[C@H]1Oc2cc(C#CC3CC3)ccc2S(=O)(=O)N([C@H](C)CO)C[C@@H]1C the results were AF4-AF9 inh -1.0, FGF22 binding inactive, rRNA inh HTS -3, rRNA inh HTS OD600 -8 and rRNA inh HTS RFP 1.5.
Screening C[C@H]1CN([C@@H](C)CO)C(=O)c2c(c3ccccc3n2C)-c2ccccc2CO[C@H]1CN(C)C(=O)Nc1ccccc1 returned AF4-AF9 inh 0.5, FGF22 binding inactive, rRNA inh HTS -2, rRNA inh HTS OD600 15 and rRNA inh HTS RFP 7.6.
C[C@@H]1CN([C@@H](C)CO)C(=O)c2cccc(N(C)C)c2O[C@H]1CN(C)Cc1ccc(C(=O)O)cc1 was read as AF4-AF9 inh -2.3, FGF22 binding active, rRNA inh HTS 1, rRNA inh HTS OD600 9 and rRNA inh HTS RFP -3.7.
Screening COc1ccc(S(=O)(=O)N(C)C[C@@H]2Oc3ncc(C#Cc4ccccc4)cc3C(=O)N([C@H](C)CO)C[C@@H]2C)cc1 returned AF4-AF9 inh -5.9, FGF22 binding inactive, rRNA inh HTS -6, rRNA inh HTS OD600 -3 and rRNA inh HTS RFP -3.4.
`O=S1(=O)N[C@H](Cc2ccccc2)COc2cc(Br)ccc21` gave AF4-AF9 inh -1.0, FGF22 binding inactive, rRNA inh HTS -29, rRNA inh HTS OD600 -38 and rRNA inh HTS RFP -1.0.
For CN1OC[C@@H]2CN(Cc3ccccc3)[C@H](c3cccc(Oc4ccccc4)c3)C[C@@H]21 the results were AF4-AF9 inh -4.4, FGF22 binding inactive, rRNA inh HTS 4, rRNA inh HTS OD600 4 and rRNA inh HTS RFP 1.3.
For CN1C(=O)c2cc(NC(=O)c3cnccn3)ccc2OC[C@@H]2O[C@H](CC(=O)NC3CCC3)CC[C@H]21 the results were AF4-AF9 inh -2.0, FGF22 binding inactive, rRNA inh HTS -2, rRNA inh HTS OD600 -4 and rRNA inh HTS RFP 0.5.
Screening CO[C@@H]1CN(C)C(=O)c2ccc(NS(=O)(=O)c3ccccc3Cl)cc2OC[C@H](C)NC[C@H]1C returned AF4-AF9 inh -1.0, FGF22 binding inactive, rRNA inh HTS 2, rRNA inh HTS OD600 5 and rRNA inh HTS RFP 0.0.
Screening CCC(=O)N1CCCCN2[C@H](CO)[C@@H](c3ccc(C#Cc4ccccc4F)cc3)[C@@H]2C1 returned AF4-AF9 inh -18, FGF22 binding inactive, rRNA inh HTS -51, rRNA inh HTS OD600 -68 and rRNA inh HTS RFP -7.4.
Screening C[C@@H]1CN([C@H](C)CO)C(=O)c2cc(NS(=O)(=O)c3ccc(Cl)cc3)ccc2O[C@@H](C)CCCCO[C@H]1CN(C)C(=O)Nc1ccc2c(c1)OCO2 returned AF4-AF9 inh 2.0, FGF22 binding inactive, rRNA inh HTS -4, rRNA inh HTS OD600 -4 and rRNA inh HTS RFP -0.5.

Structural class, the entries above containing two or more sulfur atoms
For CC1(C(=O)Nc2ccc3c(c2)OCCO3)CN(S(C)(=O)=O)CC(=O)N1Cc1cccs1 (stereo not given) the results were AF4-AF9 inh 0.9, FGF22 binding inactive, rRNA inh HTS 17, rRNA inh HTS OD600 8 and rRNA inh HTS RFP 2.6.
For COc1ccc(NC(=O)N(C)C[C@@H]2Oc3ccc(NS(=O)(=O)c4cccs4)cc3C(=O)N([C@H](C)CO)C[C@H]2C)cc1 the results were AF4-AF9 inh -2.4, FGF22 binding inactive, rRNA inh HTS 1, rRNA inh HTS OD600 -2 and rRNA inh HTS RFP -3.0.

Following part.
`COc1cccc(-c2ccc([C@@H]3[C@H]4CN(C(=O)NC(C)C)CC(=O)N4[C@H]3CO)cc2)c1` gave AF4-AF9 inh -1.3, FGF22 binding inactive, rRNA inh HTS -1, rRNA inh HTS OD600 -7 and rRNA inh HTS RFP -1.0.
`Cc1cc(-c2ccc([N+](=O)[O-])cc2)cc(C)n1` gave AF4-AF9 inh 2.9, FGF22 binding inactive, rRNA inh HTS -4, rRNA inh HTS OD600 3 and rRNA inh HTS RFP -3.5.
Screening COc1cccc(NC(=O)N(C)C[C@H]2Oc3cc(C#Cc4ccncc4)ccc3S(=O)(=O)N([C@H](C)CO)C[C@H]2C)c1 returned AF4-AF9 inh -0.9&0.5&3.9, FGF22 binding inactive, rRNA inh HTS 0&-5, rRNA inh HTS OD600 -14&-15 and rRNA inh HTS RFP 1.4&4.7.
`O=C(Nc1ccc(Cl)cc1)OC[C@@H]1CSCCS(=O)(=O)N1` gave AF4-AF9 inh -1.0, FGF22 binding inactive, rRNA inh HTS -43, rRNA inh HTS OD600 -66 and rRNA inh HTS RFP -13.
For COCC(=O)N(C)C[C@@H]1Oc2cc(-c3ccc(C)cc3)ccc2S(=O)(=O)N([C@H](C)CO)C[C@H]1C the results were AF4-AF9 inh -2.1, FGF22 binding inactive, rRNA inh HTS -4, rRNA inh HTS OD600 -22 and rRNA inh HTS RFP 2.0.
CN(C)CC#Cc1ccc([C@@H]2[C@@H](CO)N3CCCCN(C(=O)Nc4ccc(F)cc4)C[C@H]23)cc1 was read as AF4-AF9 inh 5.2, FGF22 binding inactive, rRNA inh HTS 1, rRNA inh HTS OD600 0 and rRNA inh HTS RFP -0.3.
Screening CO[C@@H]1CN(C)C(=O)c2ccc(NC(C)=O)cc2OC[C@H](C)N(CC2CC2)C[C@@H]1C returned AF4-AF9 inh -1.6, FGF22 binding inactive, rRNA inh HTS 2, rRNA inh HTS OD600 12 and rRNA inh HTS RFP -0.6.
`CCCN(C)C[C@H]1Oc2cc(C#CCOC)ccc2S(=O)(=O)N([C@H](C)CO)C[C@H]1C` gave AF4-AF9 inh -0.1, FGF22 binding inactive, rRNA inh HTS 1, rRNA inh HTS OD600 10 and rRNA inh HTS RFP 0.0.
For CO[C@@H]1CN(C)C(=O)c2ccc(NC(=O)c3ccc4c(c3)OCO4)cc2OC[C@H](C)NC[C@@H]1C the results were AF4-AF9 inh -1.5, FGF22 binding inactive, rRNA inh HTS -2, rRNA inh HTS OD600 -1 and rRNA inh HTS RFP -4.4.
For CCCNC(=O)N1[C@@H]2c3ccc(-c4cccc(OC)c4)c(=O)n3C[C@H]1[C@H](CO)[C@H]2C(=O)NCC the results were AF4-AF9 inh -5.3, FGF22 binding inactive, rRNA inh HTS 3, rRNA inh HTS OD600 6 and rRNA inh HTS RFP -0.2.

Structural class, those above with a thiophene ring, fused or not.
For CC1(C(=O)Nc2ccc3c(c2)OCCO3)CN(S(C)(=O)=O)CC(=O)N1Cc1cccs1 (stereo not given) the results were AF4-AF9 inh 0.9, FGF22 binding inactive, rRNA inh HTS 17, rRNA inh HTS OD600 8 and rRNA inh HTS RFP 2.6.
For COc1ccc(NC(=O)N(C)C[C@@H]2Oc3ccc(NS(=O)(=O)c4cccs4)cc3C(=O)N([C@H](C)CO)C[C@H]2C)cc1 the results were AF4-AF9 inh -2.4, FGF22 binding inactive, rRNA inh HTS 1, rRNA inh HTS OD600 -2 and rRNA inh HTS RFP -3.0.

Screening results (PubChem)
